Assay outcomes deposited in PubChem BioAssay by National Center for Advancing Translational Sciences (NCATS).
AmpC nodet inh – inhibitors of E. coli AmpC beta-lactamase without detergent | P00811 | AmpC nitrocefin hydrolysis, absorbance 480 nm, no detergent; potencies from a single point are estimates | Potency, µM (doses to about 28.7 µM), for inactives: at the top dose activity change, negative = inhibition | actives 1.8% (n = 71,000) | AID 585; active = falling curve, for most hits resting on a single point; inconclusive = weak or doubtful change; inactive = flat or rising curve; also: % of control where 0% means no effect; about half of the hits show no inhibition at the top dose; a quarter of the inactives give rising signals
Target sequence (P00811 whole entry, looked up): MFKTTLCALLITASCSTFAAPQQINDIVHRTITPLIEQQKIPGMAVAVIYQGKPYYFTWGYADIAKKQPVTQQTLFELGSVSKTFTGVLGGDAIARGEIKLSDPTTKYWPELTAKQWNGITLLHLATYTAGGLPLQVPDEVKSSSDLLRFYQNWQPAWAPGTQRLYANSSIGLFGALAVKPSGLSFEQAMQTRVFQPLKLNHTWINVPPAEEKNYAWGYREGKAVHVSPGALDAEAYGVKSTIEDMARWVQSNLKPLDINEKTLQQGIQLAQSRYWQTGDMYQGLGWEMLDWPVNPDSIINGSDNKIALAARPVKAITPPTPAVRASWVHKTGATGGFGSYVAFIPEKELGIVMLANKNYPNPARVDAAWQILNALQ
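Enzyme, pH 7.0 phosphate. Compound titrations were pre-incubated with AmpC for 15 min at room temperature before nitrocefin (stock 800 uM) addition; product formation was recorded at 480 nm every 20 s for 4 min.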
Numbers without * were called inactive; ? = inconclusive; & = joins results of further samples; [ ] = another dose, or the depositor's remark. Potency is read from the fitted curve at half-maximal effect. Some of the compounds tested; rates above refer to the full screens.

SMILES	AmpC nodet inh
CC(=O)NC(=O)NC1OC(=O)C(Cl)=C1Cl (stereo unspecified)	-6.3%
Cc1cc(C(=O)NCCN2CCN(c3cccc(Cl)c3)CC2)n(-c2ccccc2)n1	102.7%
CCCCc1c(O)nc(SCC(=O)Nc2ccc3c(c2)CCC3)[nH]c1=O	-12.5%
COc1cc(OC)nc(NC(=O)CSc2nnc(-c3ccccc3)n2C2CCCCC2)n1	51.2%
COc1ccc(CCNC(=O)COC(=O)c2cnc(C)cn2)cc1OC	-12.4%
COC(=O)[C@@]1(Cc2ccc(F)cc2)[C@H]2c3cc(C(=O)N4CCCC4)n(Cc4cc(C)n(C)n4)c3C[C@H]2CN1C(=O)c1ccccc1	174.4%
O=C(CCc1ccc(S(=O)(=O)N2CCCCC2)cc1)c1nnc(-c2ccccc2)o1	20µM*[single pt active]
CCc1ccccc1NC(=O)c1ccoc1C	-7.5%
CCOc1cc(C2C3=C(CCCC3=O)NC3=C2C(=O)CCC3)cc(Cl)c1O	12.3%
Cc1ccc(C)c(N2CCN(C(=O)CCS(=O)(=O)c3cccc4nonc34)CC2)c1	67.4%
COc1ccc(C2C(C(=O)NCC3CCCO3)c3cc(OC)c(OC)cc3C(=O)N2C)cc1OC (stereo unspecified)	0.8%
CC(=O)Nc1cccc(NC(=O)C2CCCN2C(=O)Nc2cccc(C)c2)c1 (stereo unspecified)	-5.1%
COc1ccc(NC(=O)C2CCCN2S(=O)(=O)c2ccc3c(c2)CCC(=O)N3)c(OC)c1 (stereo unspecified)	77.1%
O=C(Nc1ccccc1)N1CCn2c1nc1ccccc12	87.1%
COc1cc(NC(=O)CSc2nnnn2-c2ccccc2)cc(OC)c1OC	4.7%
O=C(O)c1ccc(OC2CSC2)cc1	-10.7%
NS(=O)(=O)c1ccc(N=Nc2nc3[nH]cnc(=S)c3[nH]2)cc1	-14.3%[5.75 µM]
Cc1ccc2c(c1)N(CC(=O)O)C(=O)CO2	-4.3%
Cc1ccc(/C(O)=C2\C(=O)C(=O)N(c3cc(C)on3)C2c2cccc(Cl)c2)cc1 (stereo unspecified)	?
COc1ccc(CCNC(=O)C2CCN(Cc3nc(-c4ccc(Cl)cc4)oc3C)CC2)cc1OC	145.7%
N#CC1=C2SCN(Cc3ccco3)CN2C(=O)CC1c1cccc2ccccc12 (stereo unspecified)	-1.2%
O=C(Nc1nc(-c2ccccc2)cs1)C1CCCCN1S(=O)(=O)c1ccccc1 (stereo unspecified)	?
CCN(CC)Cc1c[nH]c2ccccc12	5.8%
COc1ccc(NC(=O)CN2CCC(n3c(C)nc4cc(F)ccc43)CC2)c(OC)c1	98.3%
O=C(CC1NCCNC1=O)OCc1ccccc1 (stereo unspecified)	-3.1%
O=C(CSC1=Nc2ccccc2C2=NC(c3ccccc3)C(=O)N12)NCC1CCCO1 (stereo unspecified)	8.6%
CCCCNC(=O)NCC(=O)Nc1ccc(F)c(F)c1	-1.7%
CCn1c(SCC(=O)c2ccc(Cl)cc2)nnc1-c1ccoc1C	13.6%
COc1cc(C(=O)NCCc2cn3ccccc3n2)cc(OC)c1OC	10.5%
Cc1ccc(C2c3c(oc4ccccc4c3=O)C(=O)N2c2nnc(C)s2)o1 (stereo unspecified)	27.0%
CC(=O)OCCC(C)C	-8.3%
CCn1nnc(NC(=O)c2ccccc2Br)n1	16.3%
O=c1c2cccnc2[nH]c(=S)n1CCC1=CCCCC1	?
CC1=C(C(N)=O)C(c2ccccn2)n2nc(-c3ccccc3Cl)nc2N1 (stereo unspecified)	1.2%
N#CCCN1CCN(S(=O)(=O)c2ccc(S(=O)(=O)NC3CCCCC3)cc2)CC1	67.1%
C=CCn1c(-c2cc(OC)c(OC)c(OC)c2)n[nH]c1=S	-0.6%
Cc1cccc(C(C)C)c1-n1nnnc1-c1ccccc1	6.0%
CC(=O)c1c(N2CCN(c3cccc(Cl)c3)CC2)nc(=S)n(-c2ccccc2)c1C	82.0%
CC(C)OCCCn1c(-c2ccco2)nc2nc3ccccc3nc21	59.2%
CCOC(=O)C1CCCN(C(=O)c2cc3c(=O)n(C)c4ccccc4c3n2C)C1 (stereo unspecified)	113.8%
CC(C)C[C@@H](CC(=O)N[C@H](CC(=O)N[C@@H]1CCNC[C@H]1C(=O)N[C@H](CC(=O)N[C@@H](CCC(=O)O)CC(=O)O)CC(C)C)C(C)C)NC(=O)[C@@H]1CNCC[C@H]1N	32.6%
CC(C)CN1CC2(CCN(C(=O)Oc3ccccc3)CC2)C1	10.0%
O=C(Cn1nnc2ccccc21)NCc1ccccc1	0.8%
CCOc1ccc(C(=O)N2CCN(Cc3ccccc3)CC2)cc1	81.2%
COc1cc(-c2nc(Cc3ccccc3Cl)no2)cc(OC)c1OC	86.6%
COCCSc1ccccc1C(=O)Nc1nnc(COC)s1	-6.9%
Fc1ccccc1OCCCN1CCOCC1	4.6%
Cc1cccc(CNc2cc(-c3ccoc3)ncn2)c1	21.8%
O=C(Nc1ccc2c(c1)OCO2)C1CCN(C(=O)CSc2ncnc3ccccc23)CC1	9.5%
c1ccc2oc(CCc3nc4ccccc4o3)nc2c1	15.2%
Cc1c(OCC(F)(F)F)ccnc1CS(=O)c1nc2ccccc2[nH]1 (stereo unspecified)	6.5%[12.8 µM]
CC(=O)c1c(C)[nH]c(C(=O)Nc2cc(C)ccc2C)c1C	-12.1%
COC(=O)Cn1cnc2c(C#N)c3n(c2c1=O)CCCCC3	-6.1%
CC(=O)NCCOC(=O)Nc1ccncc1	-1.5%
CCn1c(COc2ccccc2)nnc1SCC(=O)NC1CCCCC1	49.3%
Cc1ccc(-c2nc3cc(C)ccc3o2)cc1	-0.2%
O=C(COc1ccc(S(=O)(=O)N2CCCCC2)cc1)NCc1ccncc1	12.9%
COc1ccc(OC)c(C2C(C#N)=C(N)Oc3c2c(C)nn3-c2cccc(Cl)c2)c1 (stereo unspecified)	14.9%
O=C1OCCC1S(=O)(=O)c1ccc2ccccc2c1 (stereo unspecified)	24.2%
O=C(NCC1CCCO1)c1cc(-c2ccccc2)on1 (stereo unspecified)	-6.6%

Next section:
SMILES	AmpC nodet inh
Cc1cc2c(c(=O)n1CCCn1ccnc1)C(c1ccco1)C(C#N)=C(N)O2 (stereo unspecified)	-7.9%
CCCCCN(C(=O)NC(=O)NC(C)CC)S(C)(=O)=O (stereo unspecified)	11.8%
Cc1cccc(N(C)S(=O)(=O)c2cccc3nsnc23)c1	-12.1%
COCCN1CN(S(=O)(=O)c2ccccc2)c2nc3ccccc3nc21	40.9%
Cc1cnc(-c2nnc(N(C)C(=O)c3cnccn3)s2)cn1	-10.1%
Cc1csc(NC(=O)CSc2nc(C)cs2)n1	-7.8%
CCOC(=O)C1=C(C)NC(C)=C(C(=O)OC)[C@H]1c1cccc(Cl)c1Cl	43.1%
O=C1Nc2ccccc2C(O)(C(=O)NCc2ccco2)N1c1ccccc1 (stereo unspecified)	-1.4%
O=C(NC1CCCC1)C1CC1c1ccccc1 (stereo unspecified)	-5.0%
OC(COc1ccc(Cl)cc1)CN1C2=NCCCN2c2ccccc21 (stereo unspecified)	15.2%
CCc1ccccc1NC(=O)CSc1nnc([C@@H](N)Cc2ccccc2)o1	14.1%
Cc1cc(NC(=O)CSc2nnc(C)c(=O)[nH]2)no1	-1.2%
O=C(CC1CCCC1)OCn1nnc2ccccc2c1=O	14.7%
CCO/C=C1\C(=O)N(c2ccccc2)C(=O)c2ccccc21	6.8%
O=c1[nH]c(N2CCOCC2)nc2ncn(Cc3ccccc3)c12	-1.5%
COc1cccc(CNC(=O)C2CCN(S(=O)(=O)c3c(C)nn(C)c3C)CC2)c1	34.2%
Cn1c(=O)cnc2cnc(Nc3ccccc3)nc21	13.8%
COc1ccc2nc3oc(C(=O)N4CCN(c5cccc(C(F)(F)F)c5)CC4)cc3cc2c1	49.6%
C=CCNc1nc(NCCN2CCOCC2)nc(OC)n1	6.5%
O=C(c1ccc(F)cc1)C1CCN(CCCCc2ccccc2)CC1	21.4%
COc1ccc(CNC(=O)c2cc(-n3cnnc3)ccc2Cl)cc1	0.0%
CC(C)(C)SCCNC(=O)c1ccc(NS(C)(=O)=O)cc1	0.7%
COC(=O)c1ccccc1NC(=O)CS(=O)(=O)Cc1nc(-c2ccc(C)cc2)oc1C	6.2%
COc1ccccc1N1CCN(C(=O)c2cc(-c3ccc(C)cc3)on2)CC1	78.5%
CSc1nnc(-c2nnc(SC)n2-c2ccccc2)n1-c1ccccc1	25.3%
NCCCCN=C(N)N	-7.7%&-0.2%
c1ccc2c3c([nH]c2c1)[C@@H]1[C@H]2CC[C@H]([C@H]4CCCN[C@H]42)N1CC3	11.3%[12.8 µM]
CCNC(=O)NC(=O)C(C)OC(=O)c1cccnc1SC (stereo unspecified)	6.2%
O=C(NCC1CCCO1)[C@@H]1CSC2c3ccccc3C(=O)N21 (stereo partly specified)	95.9%
COc1cccc(C(=O)Nc2cccc(NC(C)=O)c2)c1	-4.4%
O=C(c1nc2nc(-c3ccccc3)cc(C(F)(F)F)n2n1)N1CCOCC1	7.9%
CCCNS(=O)(=O)c1ccc(OCC(=O)N2CCN(Cc3ccccc3)CC2)cc1	73.7%
Cc1ccc(CNC(=O)CSc2nc3ccccc3c(=O)n2CCCO)cc1	52.0%
COc1ccc(CCNC(=O)Cc2cc(=O)[nH]c(=O)[nH]2)cc1OC	-0.1%
CN1CCC[C@@H]1c1cccnc1.O=C(O)c1ccccc1O.O=C([OH2+])c1ccccc1O.O=C([OH2+])c1ccccc1O.O=C([OH2+])c1ccccc1O.[Mn]	-6.1%[5.75 µM]
Cn1c(Sc2ccc(-c3cccnc3)n2C)ccc1-c1cccnc1	73.0%[5.75 µM]
CN1CCN(c2ncncc2-c2ccccc2Cl)CC1	5.2%
O=C(NCCCN1CCCC1)c1ccc(CS(=O)(=O)c2ccc(Br)cc2)o1	3.98µM*[single pt active]
O=C(Nc1ccc(S(=O)(=O)N2CCN(Cc3ccccc3)CC2)cc1)c1cnccn1	47.9%
O=C(O)CCN1CCOCC1	-3.2%
CS(=O)(=O)c1ccc(Cl)c(S(=O)(=O)NCc2ccccc2)c1	-4.3%
CCC(=O)N1CCc2cc(S(=O)(=O)CCC(=O)Nc3nc(C)cs3)ccc21	-8.9%
CC(O)CN1C(=O)C(CC(=O)Nc2ccc(Cl)cc2)SC1=Nc1ccccc1 (stereo unspecified)	77.9%
Cc1cccc(C)c1NC(=O)CSc1nnc(CCCCCNC(=O)OC(C)(C)C)o1	69.7%

Grouped by structure, those above containing an aryl thioether with sulfur outside any ring.
SMILES	AmpC nodet inh
CCCCc1c(O)nc(SCC(=O)Nc2ccc3c(c2)CCC3)[nH]c1=O	-12.5%
COc1cc(OC)nc(NC(=O)CSc2nnc(-c3ccccc3)n2C2CCCCC2)n1	51.2%
COc1cc(NC(=O)CSc2nnnn2-c2ccccc2)cc(OC)c1OC	4.7%
CCn1c(SCC(=O)c2ccc(Cl)cc2)nnc1-c1ccoc1C	13.6%
COCCSc1ccccc1C(=O)Nc1nnc(COC)s1	-6.9%
O=C(Nc1ccc2c(c1)OCO2)C1CCN(C(=O)CSc2ncnc3ccccc23)CC1	9.5%
CCn1c(COc2ccccc2)nnc1SCC(=O)NC1CCCCC1	49.3%
Cc1csc(NC(=O)CSc2nc(C)cs2)n1	-7.8%
CCc1ccccc1NC(=O)CSc1nnc([C@@H](N)Cc2ccccc2)o1	14.1%
Cc1cc(NC(=O)CSc2nnc(C)c(=O)[nH]2)no1	-1.2%
CSc1nnc(-c2nnc(SC)n2-c2ccccc2)n1-c1ccccc1	25.3%
CCNC(=O)NC(=O)C(C)OC(=O)c1cccnc1SC (stereo unspecified)	6.2%
Cc1ccc(CNC(=O)CSc2nc3ccccc3c(=O)n2CCCO)cc1	52.0%
Cn1c(Sc2ccc(-c3cccnc3)n2C)ccc1-c1cccnc1	73.0%[5.75 µM]
Cc1cccc(C)c1NC(=O)CSc1nnc(CCCCCNC(=O)OC(C)(C)C)o1	69.7%
